From PubChem BioAssay
TAR Tat displ = HIV-1 TAR-Tat binding disruption; HIV-1 TAR RNA, Tat peptide displacement FRET; hits give high values; z-score (test concentration not listed); hit rate 0.6% among 100,000; AID 1259389;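 also: score is relative to mean and SD of negative controls; some compounds called inactive have numbers as strong as hits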
CDC25B-CDK2 inh = human CDC25B-CDK2/CyclinA binding inhibition | P30305+P24941 | HTRF CDC25B-CDK2/CyclinA binding, anti-His/anti-Flag; hits give high values | z-score (no concentration beside the values) | hit rate 0.72% among 94,000;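 also: score is relative to mean and SD of negative controls; strong numbers were not always called active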
Numbers without * were called inactive; & = joins results of further samples.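 The calls were made as follows: active = z-score from 3 up in half or more of its runs; inactive = the rest.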

For Cc1ccccc1-c1nc(Cn2c(=O)cc(-c3ccccc3)c3c(C)nn(C)c32)c(C)o1 the results were TAR Tat displ 0.18.
Screening O=c1ccc(-c2ccc(S(=O)(=O)N3CCCN(Cc4ccc(F)cc4)C3)s2)n[nH]1 returned TAR Tat displ 0.8.
`CCOc1cc(-c2cc(C(=O)O)c3c(-c4ccc(F)cc4)[nH]nc3n2)ccc1O` gave TAR Tat displ 1.1 and CDC25B-CDK2 inh -1.1.
`CCOC(=O)N1CCN(C(=O)CSc2ccc(-c3ccccn3)nn2)CC1` gave TAR Tat displ 2.1.
`CN1CCN(CCNC(=O)c2cnc3sccn3c2=O)CC1` gave TAR Tat displ 0.54.
Screening O=c1cc(-c2ccc(O)cc2)oc2cc(O[C@@H]3O[C@H](CO)[C@@H](O)[C@H](O)[C@H]3O)c([C@@H]3O[C@H](CO)[C@@H](O)[C@H](O)[C@H]3O)c(O)c12 returned TAR Tat displ 0.15.
`COc1ccccc1N1CCN(S(=O)(=O)c2ccc(-n3cnnn3)cc2)CC1` gave TAR Tat displ 1.1 and CDC25B-CDK2 inh -0.73.
Screening CCCCC12CN3CC(C)(CN(C1)C3c1ccccc1)C2=O (configuration not stated) returned TAR Tat displ 1.3 and CDC25B-CDK2 inh -1.7.
For Cc1cc(C)cc(OC(=O)c2cc(-c3cccs3)on2)c1 the results were TAR Tat displ 0.09 and CDC25B-CDK2 inh -1.2.
For Cc1nc2nc(NC(=O)c3cccs3)[nH]n2c(=O)c1Cl the results were TAR Tat displ -1.2 and CDC25B-CDK2 inh -1.1.
Screening COCCNc1nc(NCc2ccccc2C)c2cnn(C)c2n1 returned TAR Tat displ 1.4.
For CCN(Cc1cc2ccccc2[nH]c1=O)S(=O)(=O)c1ccccc1 the results were TAR Tat displ -0.1 and CDC25B-CDK2 inh -0.93.
`S=C1NNC2(CCCCCCCCCCC2)NN1` gave CDC25B-CDK2 inh -1.6.
Screening Cc1ccc(S(=O)(=O)N(C)C)cc1NC(=O)CCc1ccccc1 returned CDC25B-CDK2 inh -0.99.
COc1ccc(OC)c(N2C(=O)c3cccc4cccc(c34)C2=O)c1 was read as TAR Tat displ 0.19 and CDC25B-CDK2 inh -0.51.

Brought forward from above: 2 entries; new compounds follow.
Screening Cc1ccc(S(=O)(=O)N(C)C)cc1NC(=O)CCc1ccccc1 returned CDC25B-CDK2 inh -0.99.
COc1ccc(OC)c(N2C(=O)c3cccc4cccc(c34)C2=O)c1 was read as TAR Tat displ 0.19 and CDC25B-CDK2 inh -0.51.
For CCc1nn2c(=O)cc(CSc3n[nH]c(-c4ccccc4)n3)nc2s1 the results were TAR Tat displ 0.25.
For CC1(C)C=Cc2cc3ccc(=O)oc3cc2O1 the results were TAR Tat displ -0.16.
For CCCCC12CN3CC(C)(CN(C1)C3c1cc(Br)ccc1OCC)C2=O (configuration not stated) the results were TAR Tat displ -1 and CDC25B-CDK2 inh -1.1.
Cc1ccc(CN2C(=O)c3oc4ccc(C)cc4c(=O)c3C2c2ccc(O)cc2)cc1 (configuration not stated) was read as TAR Tat displ 0.3 and CDC25B-CDK2 inh -0.16.
O=C(Nc1cccc(C(F)(F)F)c1)C1c2ccccc2C(=O)N2CCc3ccccc3C12 (configuration not stated) was read as CDC25B-CDK2 inh -0.78.
CCc1nnc2c(NCc3ccccc3)nc3ccccc3n12 was read as TAR Tat displ -0.35 and CDC25B-CDK2 inh -1.6.
For ON/C=N/c1ncc(C(F)(F)F)cc1Cl the results were CDC25B-CDK2 inh -1.7.
`O=C(CN1C(=O)CCc2cc(S(=O)(=O)N3CCCCC3)ccc21)N1CCc2ccccc2C1` gave TAR Tat displ -0.76.
For Cc1ccc(C2=NS(=O)(=O)c3cc(S(=O)(=O)N4CCOCC4)ccc3N2)cc1 the results were TAR Tat displ -0.26.
Cc1cc(OCc2noc(-c3ccc4c(c3)OCO4)n2)ccc1Cl was read as TAR Tat displ -0.2 and CDC25B-CDK2 inh -1.6.
`Cc1nc2ncnn2c(C)c1CCC(=O)NC(C)c1cccs1` (configuration not stated) gave TAR Tat displ 0.91 and CDC25B-CDK2 inh -0.06.
Screening O=S(=O)(c1ccc2ccccc2c1)N1CCCCC1 returned TAR Tat displ 1.5 and CDC25B-CDK2 inh -1.8.
CCN(CC)C(=O)C1Sc2nnc(-c3ccccc3)n2NC1c1ccc(C)cc1 (configuration not stated) was read as TAR Tat displ -0.16 and CDC25B-CDK2 inh -2.5.
COc1ccc(NC(=O)CSc2ncnc3c2sc2nc4c(cc23)COC(C)(C)C4)cc1 was read as TAR Tat displ 0.93.
`CC(Sc1nc2ccccc2c(=O)[nH]1)C(=O)O` (configuration not stated) gave TAR Tat displ 2 and CDC25B-CDK2 inh -0.45.
Screening O=c1c2ccccc2n2c(-c3ccccc3O)nnc2n1CCc1ccccc1 returned TAR Tat displ 1.6 and CDC25B-CDK2 inh -2.
`CN(CC(O)Cn1cnc2c1c(=O)n(C)c(=O)n2C)c1ccccc1` (configuration not stated) gave CDC25B-CDK2 inh -1.1.
For CC(C)(C)c1csc(NNC(=O)c2ccc(Cl)cc2)n1 the results were CDC25B-CDK2 inh -2.2.
Screening COc1cccc(N2C(=O)N(CC(=O)c3cc(OC)ccc3OC)c3ccccc3S2(=O)=O)c1 returned TAR Tat displ 1.6.
`Cc1ccc(-c2ccc(=O)[nH]n2)cc1S(=O)(=O)Nc1ccc(Br)cc1F` gave TAR Tat displ 0.56 and CDC25B-CDK2 inh -0.52.
Screening Nc1nc(N2CCN(Cc3ccccc3)CC2)nc(NC2CCCCC2)c1[N+](=O)[O-] returned TAR Tat displ 0.85.
`Nc1nnc(CCCn2c(-c3nonc3N)nc3ccccc32)s1` gave CDC25B-CDK2 inh -1.6.
For COc1ccccc1OCC(O)CN1CCN(CC(=O)Nc2c(C)cccc2C)CC1 (configuration not stated) the results were TAR Tat displ 0.37 and CDC25B-CDK2 inh 0.2.
Screening CCOC(=O)c1c(C)oc2ncnc(NCCCOC)c12 returned TAR Tat displ 0.94.
CCOC(=O)c1nnc(-c2ccc3c(c2)OCO3)o1 was read as TAR Tat displ -0.27 and CDC25B-CDK2 inh -0.64.
For Cc1nc2c(c(C)nn2C)c(C)c1CCC(=O)NCCC(C)C the results were TAR Tat displ 2.2 and CDC25B-CDK2 inh 0.35.
`CCOC(=O)c1sc2nc(C)nc(OCc3ccc(F)c(F)c3)c2c1C` gave TAR Tat displ 0.43.
CCN(CC)c1nc(N)c([N+](=O)[O-])c(Nc2ccc(C)cc2)n1 was read as TAR Tat displ 0.91.
For COc1cc(O)ccc1C1Nc2ccccc2-n2c(-c3ccccc3)c3c(=O)n(C)c(=O)n(C)c3c21 (configuration not stated) the results were TAR Tat displ 1.1 and CDC25B-CDK2 inh -0.75.
For CCCCC(Sc1nc(-c2ccc(OC)cc2)nc2c1c(=O)n(C)c(=O)n2C)C(=O)O (configuration not stated) the results were TAR Tat displ 0.56 and CDC25B-CDK2 inh 2.
Screening O=C(NC1CCCCC1)c1cnn2c(C(F)F)cc(-c3ccccc3)nc12 returned TAR Tat displ 0.29 and CDC25B-CDK2 inh 0.82.
Screening CCC(C)NC(=O)Nc1ccc2nc3n(c(=O)c2c1)CCCC3 (configuration not stated) returned TAR Tat displ 0.72.
Screening COCCNC(=O)Cn1ncc2ccsc2c1=O returned CDC25B-CDK2 inh -0.24.
`CCCCCCCC(=O)c1ccc(OCC)cc1O` gave CDC25B-CDK2 inh -1.8.
CCC(=O)N1CCN(c2oc(/C=C/c3ccc(C)cc3)nc2C#N)CC1 was read as TAR Tat displ 0.57 and CDC25B-CDK2 inh -1.8.
`CN(CC(=O)Nc1ncc(Br)s1)S(=O)(=O)c1cccc2cccnc12` gave TAR Tat displ -0.33 and CDC25B-CDK2 inh -0.5.
Nc1nc(Nc2ccccc2)n(-c2ccccc2)c(=O)n1 was read as CDC25B-CDK2 inh -1.5.
Screening CCC(C)NC(=O)C1=CC(c2cccs2)=NS(=O)(=O)N1C (configuration not stated) returned TAR Tat displ 0.65 and CDC25B-CDK2 inh -1.7.
O=C1O[C@@H]2C[C@H]3C[C@@H]2[C@@H]1[C@H]3C(=O)Nc1cccc(C(=O)N2CCN(c3cccc(Cl)c3)CC2)c1 was read as TAR Tat displ 1.8 and CDC25B-CDK2 inh -1.8.
For COc1cc2nc(NC(=O)c3ccc4c(c3)OCCO4)sc2cc1OC the results were TAR Tat displ 1.7.
CC(C)CCNS(=O)(=O)c1ccc(-c2cc(C(F)(F)F)on2)s1 was read as TAR Tat displ 1.6.
`O=C(NCC1CCCO1)c1ccc(CSc2nc3ccncc3n2Cc2ccccc2)cc1` (configuration not stated) gave TAR Tat displ 0.3 and CDC25B-CDK2 inh -1.5.
`COc1cc(-c2nc3n(n2)C(c2ccncc2)C2=C(CC(C)(C)CC2=O)N3)cc(OC)c1OC` (configuration not stated) gave CDC25B-CDK2 inh 0.48.
For Cc1ccc(C)c2c(=O)cc(CSc3nnc(-c4ccco4)n3C)[nH]c12 the results were TAR Tat displ -2.7.
`O=C(O)c1ccc(N2C(=O)C3CCCCC3C2=O)cc1Cl` (configuration not stated) gave TAR Tat displ 2 and CDC25B-CDK2 inh -2.

2 records drawn at random from those above:
CCC(=O)N1CCN(c2oc(/C=C/c3ccc(C)cc3)nc2C#N)CC1 was read as TAR Tat displ 0.57 and CDC25B-CDK2 inh -1.8.
`COc1cc(-c2nc3n(n2)C(c2ccncc2)C2=C(CC(C)(C)CC2=O)N3)cc(OC)c1OC` (configuration not stated) gave CDC25B-CDK2 inh 0.48.

Nothing new here: entries from further up.
`COc1cc(-c2nc3n(n2)C(c2ccncc2)C2=C(CC(C)(C)CC2=O)N3)cc(OC)c1OC` (configuration not stated) gave CDC25B-CDK2 inh 0.48.
For Cc1ccc(C)c2c(=O)cc(CSc3nnc(-c4ccco4)n3C)[nH]c12 the results were TAR Tat displ -2.7.
`O=C(O)c1ccc(N2C(=O)C3CCCCC3C2=O)cc1Cl` (configuration not stated) gave TAR Tat displ 2 and CDC25B-CDK2 inh -2.

Additional entries follow.
For CCc1cccc(C)c1NS(=O)(=O)c1cn(C)cn1 the results were TAR Tat displ 1.3.
CC(=O)N1CCc2cc(Br)cc(S(=O)(=O)NCCCN3CCCC(C)C3)c21 (configuration not stated) was read as CDC25B-CDK2 inh 1.4.
For COc1ccc(C2=NS(=O)(=O)N(C)C(C(=O)N3CCC(C(N)=O)CC3)=C2)cc1OC the results were TAR Tat displ 2.5 and CDC25B-CDK2 inh -2.5.
`CCCS(=O)(=O)n1nc(-c2ccc(C)cc2)cc1N` gave TAR Tat displ -0.47 and CDC25B-CDK2 inh -0.88.
`c1ccc(Cc2nn3c(-c4ccncc4)nnc3s2)cc1` gave TAR Tat displ 1.5 and CDC25B-CDK2 inh -0.74.
O=C1OC2C=CC=CC2=CC1C(=O)N1CCSC1c1ccccc1Cl (configuration not stated) was read as CDC25B-CDK2 inh -2.7.
`CC1Cc2cc(S(=O)(=O)CCC(=O)Nc3cccc(Br)c3)ccc2N1C(=O)C1CC1` (configuration not stated) gave TAR Tat displ 0.44.
CN(C)N1C(=O)c2cccc3c(Br)ccc(c23)C1=O was read as CDC25B-CDK2 inh -5.4.
COC(=O)c1sc(SC)c(S(=O)(=O)C(C)C)c1N/N=C(\C#N)S(=O)(=O)C(C)C was read as CDC25B-CDK2 inh -0.01.
Screening O=C(CN1N=C(c2ccccc2F)c2cc(Cl)ccc2S1(=O)=O)NC1CCCC1 returned TAR Tat displ 0.94.
Screening Cc1cccc(C)c1Nc1c(-c2cc(Br)ccc2O)nc2nc[nH]n12 returned TAR Tat displ -0.03 and CDC25B-CDK2 inh -1.6.
For c1ccc(CNc2nc3ccccc3c3nc(-c4ccccc4)nn23)cc1 the results were CDC25B-CDK2 inh -2.2.
`Nc1ccn([C@@H]2O[C@H](CO)[C@@H](O)C2O)c(=O)n1` (some centres not stated) gave TAR Tat displ -0.39 and CDC25B-CDK2 inh -1.7.
Screening c1ccc2c(c1)CN1CCCC1=N2 returned TAR Tat displ 0.55&0.92.
`O=C1c2ccncc2C(=O)N1Cc1ccccc1F` gave TAR Tat displ 0.44.
Screening Cc1cc(C)c2c(CC(=O)N(Cc3ccc(C(C)C)cc3)C3CCS(=O)(=O)C3)coc2c1 (configuration not stated) returned TAR Tat displ 1.7 and CDC25B-CDK2 inh -1.3.
Cc1ccc(-n2c(C)nnc2SCc2nc(-c3cccs3)no2)cc1C was read as TAR Tat displ 1.9 and CDC25B-CDK2 inh -1.1.
For CN1CCN(CCNC(=O)C2CCN(c3nc4ccccc4n4cccc34)CC2)CC1 the results were TAR Tat displ 0.95.
O=c1oc2ccc3ccccc3c2cc1-c1csc(-c2cc3cc(Br)ccc3oc2=O)n1 was read as CDC25B-CDK2 inh -0.86.
For O=C1C2CCCCC2C(=O)N1c1ccc(N2C(=O)C3C4CCC(C4)C3C2=O)cc1 (configuration not stated) the results were CDC25B-CDK2 inh -0.52.
Screening COc1cc(C(=O)O)c(-n2cnnn2)cc1OC returned TAR Tat displ 1.2 and CDC25B-CDK2 inh 0.56.
`Cc1ccc(C(=O)N2CCSC2=S)cc1` gave TAR Tat displ 0.6 and CDC25B-CDK2 inh -0.24.
`Cc1ccc2nc(Nc3ccc(F)cc3)c3nncn3c2c1` gave TAR Tat displ 1.8 and CDC25B-CDK2 inh -1.6.
`Cc1ccc(-c2nn(C(C)C(=O)N3CCc4ccccc43)c(=O)c3c2CCCC3)cc1` (configuration not stated) gave TAR Tat displ 2.4 and CDC25B-CDK2 inh 0.17.
`O=C(NCc1ccccc1F)C1CCC(Cn2c(=S)[nH]c3ccsc3c2=O)CC1` (configuration not stated) gave CDC25B-CDK2 inh -2.7.
Screening Nc1c(-c2nc(-c3ccccc3)no2)nnn1-c1ccc(Cl)cc1 returned TAR Tat displ -1.5.
